Screening data: PubChem, Broad Institute
rRNA inh HTS = inhibits bacterial ribosomal RNA function over humanized ribosomes. E. coli WT GFP vs humanized-ribosome RFP mutants, fluorescence, 24 h; active compounds read low; DMSO median 0, no signal -100. GFP signal change (wild-type ribosome), % (no concentration beside the values). actives 1.6% (n = 350,000). AID 720706;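 active means significant combined selectivity score with lowered wild-type GFP, culture density cut under 30%, mutant RFP and density less affected; inactive means any of these conditions unmet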; further: one replicate is shown; some compounds called inactive have numbers as strong as hits
T cruzi inh = blocks replication of Trypanosoma cruzi; T. cruzi beta-gal in NIH3T3, luminescence, 90 h; inhibition, % (test concentration not listed); actives 1.4% (n = 300,000); AID 1885;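 active means mean inhibition across valid replicates above about 55%, limit read from the data; inconclusive means mean below that limit but half or more replicates reach it; inactive means mean below it, under half of replicates reach it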;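 further: signal also drops with host cell toxicity which is not excluded here; 0% = plate median of DMSO wells and 100% = zero luminescence signal; higher percent means less beta-gal luminescence so fewer parasites; stock transfer was 50 nL into about 50 µL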
ALR inh = inhibitors of human sulfhydryl oxidase ALR. inhibition, % (test concentration not listed). P55789. purified ALR, DTT oxidation, H2O2 HRP-luminol luminescence. actives 3.8% (n = 290,000). AID 485317;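 active means mean and each replicate at 75% or more; inconclusive means only one of the two met; inactive means neither met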;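 further: stock transfer was 7.5 nL into about 7.5 µL; 0% = neutral wells and 100% = wells with inactivated enzyme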
Target sequence (P55789 whole entry, looked up): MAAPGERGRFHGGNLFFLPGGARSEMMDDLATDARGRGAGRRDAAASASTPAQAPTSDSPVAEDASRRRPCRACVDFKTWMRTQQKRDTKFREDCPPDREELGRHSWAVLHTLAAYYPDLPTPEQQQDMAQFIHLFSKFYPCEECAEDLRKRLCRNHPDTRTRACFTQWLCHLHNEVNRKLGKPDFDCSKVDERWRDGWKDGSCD
RanGTP-Impb inh = disruptors of Ran-importin-beta complex formation – biochemical, FRET, CFP-Ran, YFP-importin-beta, homogeneous, primary screen; cell-free CFP-Ran/YFP-importin-beta FRET ratio; inhibition, % (no concentration beside the values); actives 1.1% (n = 300,000);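 active means most replicates above 15%; inconclusive means exactly half above 15%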;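 further: 0% = DMSO wells and 100% = Ran loaded with GDP instead of GTP; wells of about 40 µL received 100 nL stock; the first replicate is given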
FGF22 binding = shifts melting point of recombinant human FGF22; recombinant FGF22 thermal shift, SYPRO orange fluorescence; percent of sucrose octasulfate shift, DMSO zero; Q9HCT0; AID 651658; actives 1.5% (n = 340,000); calls only at 9.99 µM;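 active means melting point raised past a set limit in the mean and every replicate; inconclusive means no clear call; three in four hits are not shown here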
Target sequence (Q9HCT0 whole entry, looked up): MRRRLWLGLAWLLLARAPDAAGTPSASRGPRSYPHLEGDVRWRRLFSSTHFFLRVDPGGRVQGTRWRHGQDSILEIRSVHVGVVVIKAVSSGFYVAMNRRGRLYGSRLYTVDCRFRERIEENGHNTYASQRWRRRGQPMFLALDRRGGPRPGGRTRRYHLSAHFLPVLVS
MLL AF4-AF9 inh = MLL-AF4/AF9 protein interaction inhibition; actives 0.47% (n = 350,000); AlphaScreen, biotin-AF4 peptide binding to FLAG-AF9; AID 651704; inhibition, % at 10 µM;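 active means every replicate reaching a set inhibition limit, whatever the replicate mean, cut at about 25% in these data; inconclusive means mean inhibition reaches that limit but some replicates miss it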;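 further: 0% = plate neutral control median and 100% = total signal loss; the record names both 10 and 1 µM as test concentration; the first replicate is given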
Target sequence (P42568 whole entry, looked up): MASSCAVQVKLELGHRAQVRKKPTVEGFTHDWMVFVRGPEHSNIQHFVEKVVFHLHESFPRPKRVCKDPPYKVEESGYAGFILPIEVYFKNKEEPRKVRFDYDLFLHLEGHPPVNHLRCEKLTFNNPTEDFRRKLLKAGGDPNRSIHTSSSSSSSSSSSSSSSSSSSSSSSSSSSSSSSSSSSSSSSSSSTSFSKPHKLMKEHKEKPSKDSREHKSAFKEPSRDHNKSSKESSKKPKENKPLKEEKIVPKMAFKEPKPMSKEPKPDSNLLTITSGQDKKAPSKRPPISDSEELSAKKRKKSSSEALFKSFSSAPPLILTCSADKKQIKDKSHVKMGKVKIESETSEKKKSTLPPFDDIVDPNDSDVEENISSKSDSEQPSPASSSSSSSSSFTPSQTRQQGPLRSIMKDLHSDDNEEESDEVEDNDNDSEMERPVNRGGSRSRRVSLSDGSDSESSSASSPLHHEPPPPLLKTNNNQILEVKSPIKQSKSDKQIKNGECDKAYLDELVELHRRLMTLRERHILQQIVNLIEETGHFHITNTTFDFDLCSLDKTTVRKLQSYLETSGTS
Beta apoptosis = blocks beta cell apoptosis; actives 0.8% (n = 300,000); INS-1E cytokine-induced death, ATP luminescence, 48 h; percent of positive-control rescue, neutral wells zero; protection from apoptosis, % (test concentration not listed); AID 435005;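 active means all replicates at 75% or more, or half of them and the mean; inconclusive means half reach 75% but not the mean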;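 further: 0% = cytokine-treated negative control wells and 100% = positive control rescue; higher means more ATP so stronger rescue from cytokine killing; wells of about 40 µL received 100 nL stock; the first replicate is given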
Calb FLC = affects C. albicans growth with fluconazole. C. albicans CaCi-2 (fluconazole-resistant clinical isolate) + fluconazole, Alamar Blue growth, 48 h. growth inhibition, % (test concentration not listed). actives 0.57% (n = 300,000);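 active means most replicates above 75%; inconclusive means exactly half above 75%; inactive means most below 75%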;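 further: all wells also contain fluconazole at 8 µg/ml as a sub-toxic cotreatment; 0% = median of DMSO wells and 100% = median of geldanamycin control wells; wells of about 8 µL received 7.5 nL stock; the first replicate is given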
rRNA inh HTS OD600 = recorded beside rRNA inh HTS, whose call it bears; OD600 change, %; measured here: OD600 growth;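 optical density of the mix in the first replicate; 0 = DMSO median and -100 = no signal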
rRNA inh HTS RFP = further read-out of rRNA inh HTS, marked with its call; RFP signal change, %; measured here: RFP humanized mutant strains;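 first replicate; 0 = DMSO median and -100 = no signal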
* marks the source's active call; other numbers are inactive results; i = inactive; ? = inconclusive; / = no result given.

Value order: rRNA inh HTS RFP	Calb FLC	FGF22 binding	Beta apoptosis	rRNA inh HTS OD600	RanGTP-Impb inh	ALR inh	MLL AF4-AF9 inh	rRNA inh HTS	T cruzi inh
1) CC(C)C[C@H](NC(=O)OC(C)(C)C)c1nnc(SCC(=O)Nc2ccc(Br)cc2)o1
    /	-6.0	/	-7.3	/	-4.2	-5.5	/	/	3.3
2) COCCn1cnnc1SCC(=O)Nc1cccc(S(=O)(=O)N(C)c2ccccc2)c1
    5.7	9.3	i	-6.3	-7.0	-1.5	-2.7	0.0	-3.2	5.2
3) CC1=CC(=O)CC(C)(C)C1(O)/C=C/C(C)=C/C(=O)O (stereo not given)
    -8.7	8.3	i	/	4.9	3.6	-15.4	-0.4	0.7	-11.3
4) O=C(c1cc(-c2ccccc2)nc2ccccc12)N1CCc2ccccc2C1
    -13.5	-8.8	i	-3.9	-18.0	0.0	2.0	1.5	-10.6	-0.3
5) COc1ccc(C2Nc3ccccc3C(=O)N2Cc2ccco2)cc1COc1ccc([N+](=O)[O-])cc1 (stereo not given)
    /	-2.8	/	8.5	/	6.4	3.4	/	/	49.8
6) C=CCN1C(=O)c2ccccc2C1(O)Cc1ccccc1 (stereo not given)
    -2.4	-1.9	i	/	7.4	4.9	/	-2.3	12.1	1.1
7) Cc1cccc(NC(=O)c2ccc(NC(=O)CC3SC(N4CCCC4)=NC3=O)cc2)n1 (stereo not given)
    -1.6	/	i	-1.7	-9.6	7.6	-6.4	-0.1	-9.7	7.9
8) Cc1c(C(=O)OCCOc2ccccc2)[nH]c2c1C(=O)CCC2
    /	-2.2	/	13.0	/	1.8	-2.7	/	/	20.6
9) COc1cc(Cl)cc(C2NC(=O)NC(C)=C2C(=O)NCc2ccccc2)c1O (stereo not given)
    /	-8.7	/	-4.3	/	1.6	0.3	/	/	-8.3
10) Cc1cc(C)c(NC(=S)NCCO)c(C)c1
    -1.3	-3.5	i	-10.2	2.5	-1.6	-11.6	1.3	0.9	2.3
11) O=C(CSc1nc(N2CCCCC2)nc(N2CCCCC2)n1)Nc1nccs1
    /	-15.3	/	4.7	/	-0.7	11.7	/	/	8.4
12) Cc1c(CN(C)C(=O)/C=C/c2ccc([N+](=O)[O-])cc2)cnn1C
    -5.5	-2.6	i	-2.8	7.8	1.4	-5.7	1.3	2.4	-21.8
13) COc1cc2oc3ccccc3c2cc1N(CC(=O)N(C)C)S(=O)(=O)c1ccc(C)cc1
    /	-11.4	/	-4.4	/	1.0	-2.5	/	/	/
14) COc1cc2c(cc1OC)C(c1cc3cccc(C)c3[nH]c1=O)N(C(=O)c1ccco1)CC2 (stereo not given)
    -14.6	-3.6	i	2.1	-75.6	-0.9	-0.3	0.3	-52.5	58.2*
15) COc1ccc(-c2csc(-c3cccnc3)n2)cc1C
    -20.1	10.7	i	1.1	-78.2	5.3	-4.2	7.3	-54.0	15.6
16) Cc1ccc(OCCSc2nc3ccccc3n2CC(=O)O)c(C(C)C)c1
    -0.7	-2.8	i	0.0	-12.9	3.0	12.7	2.5	-13.4	-15.5
17) O=C(NCC1CCCO1)c1cc(S(=O)(=O)Nc2ccc(Br)cc2)ccc1Cl (stereo not given)
    /	5.9	/	-0.9	/	6.5	-7.9	-2.2	/	11.0
18) C=CCN1C(=O)/C(=C\c2ccc(Oc3nc(N4CCOCC4)nc(N4CCOCC4)n3)c(OC)c2)SC1=S
    0.8	-4.9	i	/	14.7	-5.0	0.7	-1.1	9.3	-5.4
19) C/C(N)=C(/C#N)C(=O)CSc1nc2ccccc2c(=O)n1CCCOC(C)C
    -0.8	3.8	i	3.8	-4.7	2.6	6.5	3.7	-7.2	20.5
20) CC(OC(=O)CSc1ccc(F)cc1)C(=O)NC1(C#N)CCCCC1 (stereo not given)
    -0.4	-6.1	i	0.0	-1.4	1.9	-0.5	-1.2	1.7	-17.9
21) O=C(OCC(=O)N1CCc2ccccc21)c1c2c(nc3ccccc13)CCCC2
    11.7	2.3	i	7.7	-0.6	-2.2	-19.3	?	-15.2	46.2
22) O=C(Nc1ccc(Nc2ccccc2)cc1)c1ccc(Br)o1
    /	-1.3	/	5.8	/	-2.8	99.4*	/	/	12.5
23) COc1ccc(/C=N/NC(=O)CN2CCCc3ccccc32)c(OC)c1
    8.5	1.2	i	-5.0	11.4	0.5	11.6	9.0	5.6	-2.8
24) CCOc1cccc(C(=O)Nc2nnc(-c3cccs3)s2)c1
    /	0.5	/	-8.9	/	-0.3	-15.2	/	/	-5.9
25) Cc1ccc(SCc2cc(=O)[nH]c(SCC(=O)Nc3cc(Cl)ccc3Cl)n2)cc1
    0.2	?	i	-12.4	32.0	0.5	16.4	-2.7	23.4	-22.5
26) COc1cccc(NC(=S)N(CCCN2CCOCC2)C(C)c2cc3cccc(OC)c3o2)c1 (stereo not given)
    1.5	-10.2	i	-3.4	5.7	5.8	-5.7	-7.0	8.6	-0.9
27) Cc1cc(O)cc(O)c1-c1onc(C(F)(F)F)c1-c1cscn1
    /	-5.6	/	-1.2	/	1.4	14.7	/	/	-12.2
28) COC(=O)c1cccc(NC(=O)CN2CCN(c3ccc(OC)cc3)CC2)c1
    /	14.5	/	1.2	/	-3.1	88.3*	/	/	-2.2
29) O=C(c1cc(COc2c(F)cccc2F)on1)N1C[C@H]2CC[C@H]1C2
    -1.0*	-26.7	i	-0.9	-9.1*	1.7	2.2	-0.1	-20.4*	3.5
30) COc1cccc(OC)c1C(=O)Nc1ccc(N2CCCC2)cc1
    -6.0	-5.1	i	-1.4	5.6	?	-15.8	9.5	4.1	-6.0
31) CN(c1ccccc1)S(=O)(=O)c1cc(C(=O)c2nccn2C)ccc1Cl
    -21.8	40.0	i	/	-59.7	4.9	-4.8	8.0	-49.0	3.2
32) COC(=O)c1ccc(C)c(NC(=O)CSc2nnc3ccccn23)c1
    2.6	/	i	-3.2	28.5	/	-4.5	-1.9	3.5	/
33) O=C(OCn1nnc2ccccc2c1=O)c1ccc(Br)o1
    /	23.5	/	-3.5	/	8.1	-6.1	/	/	0.2
34) COc1ccc(-c2nnc(SCc3c(C)noc3C)o2)cc1
    /	5.0	i	-2.6	/	-2.4	1.3	-1.0	/	-3.9
35) COc1ccc(CN2CCNC(=O)C2CC(=O)NCc2cc(C)n(C)n2)c(F)c1 (stereo not given)
    0.6	-5.0	i	-11.2	3.4	-0.7	-0.4	-2.8	4.0	-12.4
36) C#CC1(NC(=O)NC(C)C)CCCCC1
    1.5	-11.0	i	-10.0	10.4	-4.3	-5.4	-2.7	6.8	-12.3
37) CC(=O)Nc1ccc(S(=O)(=O)N(C)CC(=O)NNC(=O)Cc2nc3ccccc3n2C)cc1
    0.0	/	i	-3.6	7.0	/	-14.9	-0.1	6.2	/
38) O=C(CN(C1CCCCC1)S(=O)(=O)c1ccc(Cl)cc1)N1CCOCC1
    /	-3.0	/	-2.0	/	-1.7	-0.6	/	/	-10.1
39) Cc1ccc(-c2nc3cc(NC(=O)C(C)C)ccc3o2)cc1C
    /	32.0	/	3.9	/	-0.9	-3.7	/	/	-0.5
40) Cc1cccc2cc(CN(Cc3ccco3)C(=O)NC3CCCCC3)c(=O)[nH]c12
    /	5.0	/	10.3	/	3.8	14.7	/	/	8.6
41) CCc1ccc(NC(=S)Nc2cccc(OC)c2)cc1
    /	-5.3	/	2.8	/	0.3	-8.8	/	/	0.8
42) CCOC(=O)C1CCCN(S(=O)(=O)c2cc(Br)cc3c2N(C(=O)CC)CC3)C1 (stereo not given)
    /	-8.9	i	-5.0	/	2.5	-16.2	1.4	/	8.6
43) COCCCNC(=O)CCSc1ccc(C)cc1
    /	-2.5	/	1.9	/	0.1	2.2	/	/	?
44) Cc1ccn2c(Nc3ccc4c(c3)OCO4)c(-c3ccc(O)cc3)nc2c1
    -2.1	27.8	i	-10.1	-9.1	-9.2	84.8*	7.8	-18.2	10.8
45) Nc1ccc(-c2ccc(N)c([N+](=O)[O-])c2)cc1[N+](=O)[O-]
    0.4	-5.6	i	5.2	18.6	6.0	-6.9	0.0	20.1	-9.9
46) S=c1[nH]nc(COc2ccccc2)n1/N=C/c1cccnc1
    /	0.0	/	-3.0	/	-2.7	73.4	/	/	3.8
47) O=C(Nc1ccc2nccnc2c1)c1cnccn1
    /	-3.8	/	-9.7	/	-3.5	0.2	/	/	0.2
48) Cc1ccc(C(NC(=O)C2CCCCC2)c2c(O)ccc3ccccc23)cc1 (stereo not given)
    -5.1	?	i	41.3	2.1	5.0	-9.3	-4.4	16.1	44.5
49) O=C(CCn1c(=O)oc2ccc(Cl)cc21)N1CCN(Cc2ccccc2)CC1
    2.1	-9.8	i	-5.5	0.9	3.3	-4.7	-1.3	-0.6	14.0
50) O=C(OCc1ccccc1F)c1ccc2c(c1)-c1ccccc1C2=O
    3.7	5.4	i	-1.6	17.2	?	1.4	8.1	12.7	-4.7
51) COc1ccc(NC(=O)Nc2cccc3c2O[C@H](CN(C)C(=O)Nc2ccccc2)[C@@H](C)CN([C@H](C)CO)C3=O)cc1
    0.1	/	i	0.8	0.4	/	-0.2	-1.2	0.7	/
52) O=C(/C=C/c1ccco1)N1CCN(c2ncccn2)CC1
    /	0.1	/	-1.2	/	-6.4	0.4	/	/	0.2
53) CN(C)c1cc(Cl)c2nonc2c1N
    -2.5	1.8	/	8.4	2.8	1.0	/	2.2	6.4	-3.5
54) CCC1CN(C(=O)N2CCC(C(=O)NCc3ccc(OC)cc3OC)CC2)c2ccccc2O1 (stereo not given)
    -1.0	-16.3	i	-3.9	8.4	4.0	13.1	0.9	6.5	-2.3
55) COc1cccc(C(=O)NCC(=O)N/N=C/c2cn[nH]c2-c2ccccc2)c1
    -0.9	-11.0	i	-0.5	-4.8	-0.1	-9.6	-1.0	3.2	-13.1

Not all compounds are listed; count on the stated rates, not on these rows.
